# Sa ugtP lethal: compounds lethal to S. aureus RN4220 ugtP deletion mutant; OD600 growth, 16 h; some inactives read as strong as hits; growth inhibition, % (test concentration not listed); 0.54% of 330,000 active; AID 1259309;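 active = z-score under -3 and OD600 up to 0.15 on both plates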;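 note: plate controls were untreated wells for no effect and antibiotic for full effect; wells of about 80 µL received 100 nL stock; the first replicate is given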
# BJeLR lethal: kills HRASV12-expressing BJeLR cells | BJeLR (HRASV12) viability, CellTiter-Glo ATP luminescence, 48 h; reference of the scale not given here | inhibition, % (no concentration beside the values) | 0.17% of 300,000 active | AID 1554;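 active = replicate mean above 50%; inconclusive = above 50% but judged a plate artefact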;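 note: 50 nL library stock added to about 25 µL; numbers are from one replicate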
# PrP UTR inh: inhibition of PrP 5' UTR reporter expression; 0.35% of 340,000 active; inhibition, % (concentration not given with the values); cell-based PrP 5' UTR mRNA reporter, plate reader; AID 488862;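 active = every replicate at 50% or more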;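 note: 0 = median of the neutral control wells; tested in H4 reporter cells; numbers are from one replicate; inactives centre near -14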
# Mtb hypoxia inh: inhibitors of hypoxia-regulated fluorescent reporter in Mycobacterium tuberculosis; 0.1% of 300,000 active; fluorescence inhibition, % (concentration not given with the values); M. tuberculosis hypoxia-regulated fluorescent reporter, fluorescence;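 active = 35 to 45% if threefold the growth effect, above 45% if 1.5-fold the growth effect; inactive = the rest, general growth blockers included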;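 note: wells of about 50 µL received 100 nL stock; 0% = vehicle wells and 100% = reference inhibitor wells; whole bacteria with a GFP reporter of the hypoxia response; strong numbers were not always called active; many hits fall short of the cut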
# Sa RN4220 lethal: kills Staphylococcus aureus RN4220. S. aureus RN4220 growth, OD600, 16 h. inhibition, % (no concentration beside the values). 0.33% of 330,000 active. AID 1259311;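 active = z-score of -3 or lower and OD600 up to 0.18 on both plates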;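 note: plate controls were untreated cells for no effect and reference antibiotic for full effect; stock transfer was 100 nL into about 80 µL; one replicate is shown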
# Bead autofluor: flagged as autofluorescent in microsphere protease counterscreen; compound autofluorescence counterscreen, microsphere flow cytometry; stronger effect = higher value; fluorescence intensity (test concentration not listed); 3.1% of 360,000 active; AID 624483;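 active = at least 3 SD above the mean of all compounds, about 16000 in these data; inconclusive = too few beads counted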;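 note: 100 nL of 1 mM stock went into each well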
# Mtb hypoxia inh growth: recorded beside Mtb hypoxia inh, whose call it bears; growth inhibition, %; measured here: M. tuberculosis growth (absorbance);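 0% = vehicle and 100% = reference antibiotic; read after six days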
# * = called active by the depositor; ? = inconclusive; · = not tested or not shown. Random draw from the library, and some 4% of all compounds hit somewhere here.
SMILES,Sa ugtP lethal,BJeLR lethal,PrP UTR inh,Mtb hypoxia inh,Mtb hypoxia inh growth,Sa RN4220 lethal,Bead autofluor
Cn1c(COc2ccccc2)nnc1SCCN1CCOCC1,-6,-2,-6,-5,-2,0.3,4277
Cc1cc(=O)[nH]c(SCC(=O)NCc2ccco2)n1,0,-1,-8,7,12,4.1,?
CCn1c(SCC(=O)OC)nc2sc3c(c2c1=O)CCC3,8,-4,-18,12,12,12,8491
Cc1ccc(-n2nc(C)c(/C=N/NC(=O)c3cccs3)c2Cl)cc1,·,6,-59,·,·,·,9597
COc1ccc(-c2cn(CCO)c(-c3ccncc3)n2)cc1,10,·,-19,19,7,7.9,3818
CCOc1ccc(C(CC(=O)O)NC(=O)COc2ccccc2)cc1 (configuration not stated),7,6,-23,·,·,-4.3,2553
COc1cccc(C(=O)NC(C)c2ccc(-c3ccccc3)cc2)c1OC (configuration not stated),·,-14,-5,·,·,·,3769
N#Cc1cccc(NC(=O)COC(=O)c2ccccc2C(=O)c2ccc(Cl)c([N+](=O)[O-])c2)c1,-14,28,-8,2,2,-4.9,2514
CCOC(=O)c1sc(NC(=O)C2C3C=CC(C3)C2C(=O)O)nc1C (configuration not stated),0,1,0,3,7,-0.1,23393*
COc1ccc(CN2CN(S(=O)(=O)c3cccs3)c3nc4ccccc4nc32)cc1,10,-4,-13,14,7,4.1,3638
COC(=O)c1sc2cc(C(F)(F)F)cnc2c1-c1ccccc1,-15,-3,-4,16,2,-1.8,8107
CNC(=O)c1c(Br)cnn1-c1ccc(C)cc1,7,-6,-64,2,10,8.5,4715
Cc1cc(S(=O)(=O)N2CCN(c3ccccc3O)CC2)c(C)s1,5,1,-5,-1,-1,-12,4372
Cc1ccc(Cn2c(=N)n(CC(O)c3ccco3)c3ccccc32)cc1 (configuration not stated),-7,9,3,19,6,9.6,6512
COCCN(C(=O)CNC(=O)c1ccco1)C(C(=O)NC1CCCC1)c1ccccc1F (configuration not stated),4,-18,-22,17,6,4.6,3753
CN(C(=O)Cn1nc(C(=O)O)c2ccccc2c1=O)C1(C#N)CCCCC1,2,·,9,-9,-19,-2.7,3988
C/C(=N\O)c1noc(C)c1C(=O)Nc1nccs1,·,1,-3,·,·,·,?
Fc1cc(F)c2nc(N3CCCCC3)sc2c1,5,6,-89,4,4,16,3385
CC1CCCC(C)N1/N=C/C=C/c1ccccc1[N+](=O)[O-] (configuration not stated),·,32,-49,·,·,·,7420
c1nc2sc3c(c2c2nnnn12)CCC3,-1,0,-4,4,6,5.3,23437*
COc1cc(OC)c(C#N)c(S(=O)Cc2ccccc2)c1 (configuration not stated),-1,-1,-8,·,·,1.8,2922
COC(=O)c1sc(NC(=O)C(C)c2ccccc2)nc1C (configuration not stated),5,-4,-8,7,5,7.3,2532
CCCc1nc(SCC(=O)Nc2nnc(CC)s2)c2c(C)c(C)sc2n1,4,-5,-19,12,6,0.8,5987
Cc1ccc(S(=O)(=O)N(C)N=O)cc1,99*,·,-5,0,0,99*,6119
Cc1nnc(NC(=O)CCC(=O)NC2CCCCCCC2)s1,2,-6,-18,7,4,2.9,5455

# New compounds follow
SMILES,Sa ugtP lethal,BJeLR lethal,PrP UTR inh,Mtb hypoxia inh,Mtb hypoxia inh growth,Sa RN4220 lethal,Bead autofluor
O=C(C1CCCN(Cc2cccnc2)C1)N1CCCCC1 (configuration not stated),-8,5,-35,·,·,-0.8,5034
C#CCOCCOCCOCCNc1nc(N2CCN(C(=O)C(Cc3cc4ccccc4[nH]3)n3cc(C(N)C(C)CC)nn3)CC2)nc(N2CCN(C(=O)C(Cc3cc4ccccc4[nH]3)n3cc(C(N)C(C)CC)nn3)CC2)n1 (configuration not stated),·,-1,-16,·,·,·,3717
CCC(C)Nc1nc(N)c([N+](=O)[O-])c(NCc2ccccc2)n1 (configuration not stated),-3,7,-10,16,4,-2.4,4194
Cc1ccc(N2C(=O)[C@@H]3[C@H](C2=O)[C@H]2C=CC=NN2[C@@H]3C(=O)Nc2ccc(Cl)cc2)cc1,-3,5,-11,-80,-9,1.7,3045
CCOc1cc(CNCCO)ccc1OCC(=O)NC(C)(C)C,1,-4,-41,0,4,-1.6,3532
CCCCn1c(N)c(N(CC(C)C)C(=O)CSCc2cccc(C)c2)c(=O)[nH]c1=O,1,-4,-17,1,-5,2.5,·
Cc1ccc(NS(=O)(=O)c2ccc(C)c(NC(=S)NCCN3CCOCC3)c2)c(C)c1,-4,·,-16,9,-1,13,4037
COc1ccc2cc(C(c3nnnn3C3CCCC3)N3CCOCC3)c3nnnn3c2c1 (configuration not stated),10,4,12,0,0,6.0,4703
CCCCCOc1ccccc1C(=O)NCCCCCC(=O)O,8,4,-18,-9,9,3.3,3354
COc1ccc(CNC(=O)c2cc(-c3ccccc3OC)on2)cc1,6,5,-10,4,7,-4.8,10809
Cn1c(/C(C#N)=C/Nc2ccccn2)nc2ccccc21,·,6,-10,·,·,·,9179
COC(=O)C1OCOC2C(C(=O)OC)OCOC12 (configuration not stated),8,·,-24,8,2,3.2,2940
CC(C)c1ccc(-c2c(C#N)c(N)nc(SCC(=O)N3CCCCCC3)c2C#N)cc1,-5,5,·,0,6,2.9,·
CCCCc1nc2ccc(S(=O)(=O)O)cc2[nH]1,6,13,-10,2,-3,7.7,4100
Cc1ccc(-c2nc(C#N)c(N3CCC(C)CC3)o2)cc1,10,-1,-19,-1,-5,3.3,3426
CCCCCNc1nc(NCCCO)c(C#N)c2c1CN(C)CC2,-4,6,-12,·,·,1.9,2425
On1cnnc1-c1ccccc1,1,2,2,·,·,2.1,4505
CNS(=O)(=O)c1ccc(-c2ccc(C=C3C(=O)NC(=O)NC3=O)o2)cc1,·,0,-2,·,·,·,4048
C/C(=N/NC(=O)c1ccco1)c1ccc(NC(=O)c2ccc(Br)o2)cc1,·,0,-30,·,·,·,6204
N#Cc1c(-c2ccccc2F)cc(C2CC2)nc1SCC(=O)c1cccs1,8,2,-9,7,4,1.2,2735
Cc1cc(F)ccc1NC(=O)CCc1ccc(S(=O)(=O)N2CCOCC2)cc1,2,·,-23,·,·,3.6,8393
CCCCN1C(=S)NCC1Cc1cccc2ccccc12 (configuration not stated),5,·,·,7,-2,3.5,·
Cc1cccc(NC(=S)N2CCn3cccc3C2c2cccnc2)c1 (configuration not stated),-2,-15,-22,-10,1,-1.2,2363
CC(NCc1ccccc1)c1ccccc1O (configuration not stated),4,-7,-15,7,4,4.8,3778
COc1ccc(CC(=O)OC(C)CN2CCCCC2)cc1 (configuration not stated),3,-6,-22,-9,-7,2.5,4668

# Full records as entered above. Values in the order: Sa ugtP lethal	BJeLR lethal	PrP UTR inh	Mtb hypoxia inh	Mtb hypoxia inh growth	Sa RN4220 lethal	Bead autofluor
# Listed for CC(NCc1ccccc1)c1ccccc1O (configuration not stated) → 4	-7	-15	7	4	4.8	3778
# Listed for Cn1c(/C(C#N)=C/Nc2ccccn2)nc2ccccc21 → ·	6	-10	·	·	·	9179
# Listed for CNS(=O)(=O)c1ccc(-c2ccc(C=C3C(=O)NC(=O)NC3=O)o2)cc1 → ·	0	-2	·	·	·	4048

# The results go on:
SMILES,Sa ugtP lethal,BJeLR lethal,PrP UTR inh,Mtb hypoxia inh,Mtb hypoxia inh growth,Sa RN4220 lethal,Bead autofluor
Cc1nc(CC(=O)Nc2nccs2)cs1,6,-6,-19,6,9,2.7,3104
C=CCNc1nc(N)c(C(=C(C#N)C#N)c2ccc(Br)cc2)s1,-23,-9,-4,-1,4,-0.5,2442
COc1cnc(-c2ccccc2)[nH]c1=O,10,1,-17,-5,5,5.9,1935
CC(NC(=O)/C(C#N)=C/c1ccc(OCC(=O)O)cc1)c1ccccc1 (configuration not stated),6,-12,-34,4,-11,2.5,?
Cn1cc(C(=O)NS(=O)(=O)Nc2ccc(Br)cc2)c2ccccc21,6,5,-1,7,12,3.0,5749
COc1cc(C(=O)N2CCC(n3cnc4cc(F)ccc43)CC2)cc(OC)c1OC,3,-8,-14,5,5,2.6,3478
CC(=NCc1ccco1)c1c(O)n(-c2ccccc2C)c(=O)[nH]c1=O,5,-8,3,20,-1,0.7,?
Cc1cccc(C(=O)N2CCCC(c3nc(-c4ccc(F)cc4)no3)C2)c1 (configuration not stated),6,4,-9,12,3,3.8,3670
Oc1cc2c(cc1C(c1ccc(Br)cc1)N1CCCC1)OCO2 (configuration not stated),69,·,-17,16,12,33,3274
CSCCC1NC2(C(=O)Nc3ccc(Cl)cc32)[C@@H]2C(=O)N(C3CCCC3)C(=O)[C@H]12 (some centres not stated),-3,-10,-31,2,13,5.3,·
CC(C)(C)C(=O)OCc1nc(-c2ccc(F)cc2)cs1,29,-6,-91,8,8,4.5,6333
O=C(c1ccc(CS(=O)c2cccc(Cl)c2)o1)N1CCOCC1 (configuration not stated),7,-13,-6,4,-3,2.5,6016
CCOc1ncccc1C(=O)Nc1ccc(Cl)cc1,0,-11,-2,4,1,5.2,3353
O=c1c2[nH]c3ccc(Br)cc3c2ncn1CCCn1ccnc1,3,-6,-18,4,8,8.6,3175
Clc1ccc(N2CCN(N=Cc3ccncc3)CC2)cc1,-6,·,·,-5,6,0.5,·
O=C(O)CSCC(=O)N1CCN(c2cc(C(F)(F)F)nc3ccccc23)CC1,8,9,-15,-15,-1,2.4,3803
CCOc1ccccc1Nc1nnc(C)c(=O)[nH]1,-7,8,1,5,1,-3.1,7155
CCCc1ncc(CN2CCCCC2C(=O)Nc2ccc(Oc3ccccc3)nc2)cn1 (configuration not stated),3,-4,-7,-7,2,3.6,6546
CN(C(=O)C1CCC(CNS(=O)(=O)c2cccc3cccnc23)CC1)C1CCCCC1 (configuration not stated),3,-2,-16,-1,-3,-1.2,·
O=C(CN1c2ccccc2Sc2ccccc21)NN=Cc1ccc(Cl)cc1Cl,-20,·,·,7,-5,-5.4,·
CC(Sc1nnc(-c2ccco2)o1)C(=O)NCCC1=CCCCC1 (configuration not stated),3,-8,-5,-1,6,1.5,4089
c1coc(CNc2ncnc3ccccc23)c1,10,15,-5,·,·,1.3,4529
O=C(NCCNC(=O)c1ccccc1F)c1ccco1,12,-4,-29,-4,-9,7.2,3016
CC(c1nccs1)N(C)c1nc2nonc2nc1NC1CC1 (configuration not stated),0,4,1,-5,6,2.8,4813
CC(C(=O)Nc1ccc(S(=O)(=O)N2CCCC2)cc1)N1CCCC(C(N)=O)C1 (configuration not stated),2,·,-29,-4,-11,0.1,5350

# Next section.
SMILES,Sa ugtP lethal,BJeLR lethal,PrP UTR inh,Mtb hypoxia inh,Mtb hypoxia inh growth,Sa RN4220 lethal,Bead autofluor
Cc1csc(C(=O)NN)c1N(C)C,5,-14,-29,-2,-1,3.2,5761
O=C(CCC(=O)c1ccc(F)cc1)Nc1cccnc1,7,0,0,·,·,1.6,2599
CCOC(=O)C1(Cc2ccc(Cl)cc2)CCN(C(=O)CCc2cnccn2)CC1,8,-3,-13,7,9,7.1,2079
CSc1nsc(NC(=O)Cc2ccccc2)n1,7,8,-20,1,11,-5.8,9027
O=C(Nc1ccc(CN2CCS(=O)(=O)CC2)cc1)c1ccc(C(F)(F)F)cc1,6,-2,-6,0,4,3.8,3484
CCN1C(=O)CSc2ccc(C(=O)NC3CCCCC3)cc21,5,-7,-31,3,7,-2.8,20222*
Cc1cc(C)n(CCC(=O)N2CCN(S(=O)(=O)c3ccc(C)c(C)c3)CC2)n1,-2,-1,-10,12,-2,4.2,4037
O=C(CC=NOCc1c(Cl)cccc1Cl)c1ccc(Cl)cc1,-5,·,·,9,5,6.5,·
CCCn1c(N)c(C(=O)CSc2nc(C)cs2)c(=O)n(C)c1=O,-5,11,-6,-10,3,2.9,2495
COc1ccc(NC(=O)Nc2nnc(-c3cccs3)s2)cc1,8,-3,-74,6,20,4.4,3880
COc1ccccc1CNS(=O)(=O)c1cccs1,0,-2,-17,7,2,6.1,4339

# A section from the list above, as a working copy:
SMILES,Sa ugtP lethal,BJeLR lethal,PrP UTR inh,Mtb hypoxia inh,Mtb hypoxia inh growth,Sa RN4220 lethal,Bead autofluor
COc1ccc(NC(=O)Nc2nnc(-c3cccs3)s2)cc1,8,-3,-74,6,20,4.4,3880
COc1ccccc1CNS(=O)(=O)c1cccs1,0,-2,-17,7,2,6.1,4339

# Screening data as filed in PubChem.
